Cruzain inh noDet = blocks cruzain activity in detergent-free assay. purified cruzain, Z-FR-AMC fluorescence, no detergent. Potency, µM, inactives show max response, negative = inhibition, actives largely listed as inhibitors. 200,000 compounds, 2.3% hits. AID 1476;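 also: plate controls were enzyme without inhibitor for no effect and buffer without enzyme for full effect; nearly all actives have a fitted effect of over 40% in size; top concentration of the series not given in the record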
Target sequence (P25779 123-467 limits assumed): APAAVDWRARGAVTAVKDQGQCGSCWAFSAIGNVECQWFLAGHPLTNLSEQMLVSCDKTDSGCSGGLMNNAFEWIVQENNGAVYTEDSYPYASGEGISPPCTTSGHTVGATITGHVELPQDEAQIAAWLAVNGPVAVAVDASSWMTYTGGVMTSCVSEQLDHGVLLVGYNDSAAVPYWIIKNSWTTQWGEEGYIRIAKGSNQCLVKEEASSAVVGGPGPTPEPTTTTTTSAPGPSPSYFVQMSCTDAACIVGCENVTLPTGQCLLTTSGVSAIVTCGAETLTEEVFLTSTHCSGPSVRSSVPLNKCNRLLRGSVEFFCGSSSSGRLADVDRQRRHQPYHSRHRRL
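Purified cruzain at 1.5 nM, pre-incubated 15 min with compound at room temperature in 100 mM sodium acetate pH 5.5, 5 mM DTT, 0.00005% Triton X-100. Reaction started with 2 uM Z-FR-AMC; AMC fluorescence increase over 60 s gives rate.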
StopGo reporter = lowers the luciferase signal of an FMDV 2A StopGo reporter. human cells with a luciferase reporter of 2A StopGo recoding; control for the full effect not named in the record. Potency, µM (top dose mostly 57.9 µM), for inactives: top-dose signal change, negative = less light. 410,000 compounds, 1.2% hits. AID 1159524; active = well fitted falling curve with a large enough effect; inconclusive = small, poorly fitted or top-dose-only effect; inactive = no such curve, though single readings can be large or run the other way; tested in HEK293T cells; also: nearly all actives have a fitted effect of over 45% in size; luciferase light after 4 h
Cruzain inh Det = cruzain (T. cruzi) inhibition with detergent; P25779; purified cruzain, Z-FR-AMC fluorescence, 0.01% Triton; Potency, µM, inactives show max response, negative = inhibition, hits mostly inhibitors; 200,000 compounds, 0.43% hits;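 also: plate controls were neutral wells for no effect and buffer without enzyme for full effect; nearly all actives have a fitted effect of over 40% in size; top concentration of the series not given in the record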
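Detergent-containing run (0.01% Triton X-100) in acetate buffer pH 5.5 with 5 mM DTT: enzyme at 1.5 nM final, 15 min compound preincubation at room temperature, then 2 uM Z-FR-AMC substrate. Activity taken as 60 s fluorescence increase at 360/450 nm.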
Starred values were filed as active, the others as inactive; ? = inconclusive; & = joins results of further samples; [ ] = dose if it differs, or a comment. Unless noted, calls follow the shape of the dose curve; as a rule, active = well fitted curve in the direction sought with a large enough effect; inconclusive = small, poorly fitted or top-dose-only effect, or another doubt; inactive = no such curve, though single readings can be large; an effect the other way counts as inactive or inconclusive. Unless noted, % is scaled to controls: 0 for no effect and ±100 for the full control effect; potency is read from the fitted curve at half-maximal effect. An excerpt; the hit share may differ from the screen's.

SMILES	Cruzain inh noDet	StopGo reporter	Cruzain inh Det
COCCn1c(=O)c(C)nc2cnc(Oc3cccc(Cl)c3)nc21	18.8%	-27.8%	-3.3%
COC(=O)N1CCC2(CC1)CN(C(=O)Nc1cccc(C#N)c1)C2	4.2%	-10.7%	2.4%
C=C[C@](C)(O)CCC1C(=C)CC(O)C2C(C)(C)CCCC12C (some centres not stated)	?	?	-6.3%
CC(C)NC[C@H](O)c1ccc2ccccc2c1	1.5%&-10.8%	-13.9%	0.1%&-3.6%
COC(=O)CC1C(C)(C)C(OC(C)=O)[C@@]2(O)C=C3C4CC(=O)OC(c5ccoc5)[C@]4(C)CCC3[C@@]1(C)C2=O (some centres not stated)	4.2%	-1.6%	5.5%
COCCn1c(=O)c(-c2cccs2)nc2cnc(N3CCNCC3)nc21	-13.8%	2.0%	-17.6%
CS(=O)(=O)N1CCC[C@@]2(CCN(C(=O)Nc3cccc(C#N)c3)C2)C1	-7.8%	-9.7%	0.3%
Cn1c2c(c(=O)c3ccccc31)C[C@@H](O)C(C)(C)O2	-14.8%	3.0%	5.0%
CC(C)[C@]1(O)[C@@H](OC(=O)c2ccc[nH]2)[C@@]2(O)[C@@]3(C)C[C@]4(O)O[C@@]5([C@H](O)[C@@H](C)CC[C@]35O)[C@@]2(O)C41C	-3.3%	-7.7%	4.1%
Cc1noc(C)c1-c1cc(Nc2ccc(F)cc2)ncn1	0.2%	6.4%	-1.9%
O=C(c1ccncc1)N1CCC[C@@]2(CCN(Cc3ccncc3)C2)C1	1.4%	2.5%	4.2%
O=C(c1ccncc1)N1CCC2(CC1)CN(c1ccc(-c3ccccc3)cc1)C2	10.1%	-20.1%	0.1%
Cc1noc(C)c1C(=O)N1CCC2(CCCN(CC(C)C)C2)CC1	4.0%	-1.9%	2.1%
Cc1noc(C)c1C(=O)N1CCC2(CC1)CN(c1ccccc1)C2	9.8%	-16.7%	1.3%
CN1CCN(c2ncnc3ccc(-c4cccc(NS(C)(=O)=O)c4)cc23)CC1	-3.4%	0.0%	0.2%
CC(=O)OC/C=C(\C)CC/C=C(\C)CC/C=C(\C)CC/C=C(\C)CC/C=C(\C)CC/C=C(\C)CC/C=C(\C)CC/C=C(\C)CCC=C(C)C	-7.1%	-6.9%	2.1%
O=c1cnc2cnc(Oc3cccc(Cl)c3)nc2n1Cc1ccc(F)cc1	?	-27.0%	-5.5%
O=C(c1cnccn1)N1CCC2(CC1)CN(c1ncccn1)C2	8.8%	-8.6%	-1.1%
COc1cc(O)c(C(=O)O)c(O)c1	-3.2%	2.6%	1.6%
COc1ccc(Oc2ncc3nc(-c4cccs4)c(=O)n(CCC#N)c3n2)cc1	?	-11.2%	-0.1%
N#Cc1ccc(CN2CCCC3(CCN(C(=O)c4csnn4)CC3)C2)cc1	1.9%	3.2%	0.5%
Cc1ccccc1-c1ccc2ncnc(N3CCNCC3)c2c1	5.0%	-15.4%	4.6%
CCCCC/C=C\C/C=C\C/C=C\C/C=C\CCCC(=O)O[C@H](COCCCCCCCCCCCCCCCC)COP(=O)([O-])OCC[N+](C)(C)C	20.2%	5.2%[6.7 µM]	-4.4%
CCCCCCCCCC(=O)O[C@H](CC(=O)O)C[N+](C)(C)C	-1.0%	4.1%	-3.6%
COC(=O)/C(=C1/OC(=O)C(c2ccccc2)=C1O)c1ccccc1	-12.4%	27.6%	-13.1%
CNc1ncncc1-c1ccc(C(=O)N(C)C)cc1	-0.4%	-13.7%	6.1%
Cc1nc2cnc(N3CCNCC3)nc2n(Cc2cccs2)c1=O	-13.8%	-3.0%	-2.3%
CC(C)=CCc1c(O)cc2occ(-c3ccc4c(c3)OCO4)c(=O)c2c1O	-28.8%	?	1.7%
COc1ccc(-n2c(=O)c(C)nc3cnc(OC)nc32)cc1	-3.1%	-22.0%	-7.7%
COCCn1c(=O)c(CCc2ccccc2)nc2cnc(Oc3ccccc3)nc21	4.6%	-11.7%	-3.4%
CCC(C)C(=O)OC1C(O)C2C(CN3CC(C)CCC3[C@]2(C)O)C2C[C@]34O[C@@]5(O)C(OC(=O)C(C)(O)C(C)O)CCC3(C)C5C(OC(C)=O)C(OC(C)=O)C4[C@@]21O (some centres not stated)	2.4%	26.8%	5.2%
COCC(=O)N1CCC[C@@]2(CCN(C(=O)Nc3ccccc3)C2)C1	-1.6%	-0.9%	2.4%
COc1ccccc1CNc1ncncc1-c1ccc(N(C)C)cc1	1.6%	-23.9%	1.9%
COc1ccc(CNc2cc(-c3ccoc3)ncn2)c(OC)c1	-18.6%	15.4%	-2.0%
N#Cc1cccc(-c2nc3cnc(N4CCOCC4)nc3n(Cc3ccc(F)cc3)c2=O)c1	13.3%	-11.3%	5.3%
CN[C@H]1CCc2cc(OC)c(OC)c(OC)c2-c2ccc(N[C@@H]3CCCCNC3=O)c(=O)cc21	-19.1%	-2.6%	-0.2%
C[C@@]12CC(c3ccoc3)OC(=O)C1CC[C@@]1(C)C2C2C=C[C@@]1(O)C(=O)O2 (some centres not stated)	-8.2%	-11.2%	-1.2%
c1cncc(CNc2ccnc(-c3ccc4c(c3)OCO4)n2)c1	2.2%	-0.4%	0.2%
CN(C)Cc1ccccc1-c1cncnc1NCc1cccnc1	-2.2%	1.5%	4.0%
O=C(Nc1ccccc1)N1CCCC2(CCN(C(=O)c3csnn3)CC2)C1	0.6%	2.1%	0.1%
CN(C)Cc1ccccc1-c1ccc2ncnc(N3CCOCC3)c2c1	-3.6%	-20.8%	-1.1%
CN(Cc1ccco1)c1ncncc1-c1ccccc1C(F)(F)F	-0.7%	-8.6%	3.6%
CCN(CC)CCO[C@H]1CC[C@@]2(C)C(=CC[C@@H]3[C@H]2CC[C@]2(C)C(=O)CC[C@H]32)C1	-1.0%	-22.9%	-3.1%
O=S(=O)(c1ccccc1)N1CCC2(CC1)CN(Cc1ccccc1)C2	0.2%	-14.6%	6.5%
COCCn1c(=O)c(-c2ccc(Cl)cc2)nc2cnc(Oc3cccc(Cl)c3)nc21	0.6%	-13.5%	-1.0%

An excerpt from above in order of SMILES length, ascending:
SMILES	Cruzain inh noDet	StopGo reporter	Cruzain inh Det
CNc1ncncc1-c1ccc(C(=O)N(C)C)cc1	-0.4%	-13.7%	6.1%
COc1ccccc1CNc1ncncc1-c1ccc(N(C)C)cc1	1.6%	-23.9%	1.9%
CN(Cc1ccco1)c1ncncc1-c1ccccc1C(F)(F)F	-0.7%	-8.6%	3.6%
O=C(c1cnccn1)N1CCC2(CC1)CN(c1ncccn1)C2	8.8%	-8.6%	-1.1%
COCCn1c(=O)c(C)nc2cnc(Oc3cccc(Cl)c3)nc21	18.8%	-27.8%	-3.3%
Cc1noc(C)c1C(=O)N1CCC2(CCCN(CC(C)C)C2)CC1	4.0%	-1.9%	2.1%
O=c1cnc2cnc(Oc3cccc(Cl)c3)nc2n1Cc1ccc(F)cc1	?	-27.0%	-5.5%
O=C(c1ccncc1)N1CCC[C@@]2(CCN(Cc3ccncc3)C2)C1	1.4%	2.5%	4.2%
COCCn1c(=O)c(CCc2ccccc2)nc2cnc(Oc3ccccc3)nc21	4.6%	-11.7%	-3.4%
CC(C)=CCc1c(O)cc2occ(-c3ccc4c(c3)OCO4)c(=O)c2c1O	-28.8%	?	1.7%
CN1CCN(c2ncnc3ccc(-c4cccc(NS(C)(=O)=O)c4)cc23)CC1	-3.4%	0.0%	0.2%
CS(=O)(=O)N1CCC[C@@]2(CCN(C(=O)Nc3cccc(C#N)c3)C2)C1	-7.8%	-9.7%	0.3%
N#Cc1cccc(-c2nc3cnc(N4CCOCC4)nc3n(Cc3ccc(F)cc3)c2=O)c1	13.3%	-11.3%	5.3%
C[C@@]12CC(c3ccoc3)OC(=O)C1CC[C@@]1(C)C2C2C=C[C@@]1(O)C(=O)O2 (some centres not stated)	-8.2%	-11.2%	-1.2%
CCCCC/C=C\C/C=C\C/C=C\C/C=C\CCCC(=O)O[C@H](COCCCCCCCCCCCCCCCC)COP(=O)([O-])OCC[N+](C)(C)C	20.2%	5.2%[6.7 µM]	-4.4%
CCC(C)C(=O)OC1C(O)C2C(CN3CC(C)CCC3[C@]2(C)O)C2C[C@]34O[C@@]5(O)C(OC(=O)C(C)(O)C(C)O)CCC3(C)C5C(OC(C)=O)C(OC(C)=O)C4[C@@]21O (some centres not stated)	2.4%	26.8%	5.2%

Other results follow.
SMILES	Cruzain inh noDet	StopGo reporter	Cruzain inh Det
Cc1nc2cnc(Nc3ccccc3)nc2n(C)c1=O	-18.1%	18.8%	-0.6%
O=C(c1cnccn1)N1CCC2(CCN(Cc3cc(C(F)(F)F)cc(C(F)(F)F)c3)CC2)CC1	8.1%	-16.3%	2.1%
C=C1C[C@]23CC[C@H]4C(CO)(CO)C[C@@H](O)C[C@@]4(C)[C@@H]2CC[C@H]1C3	?	0.0%	1.1%
COc1cccc(Nc2ncc3nc(C)c(=O)n(C[C@H]4CCCO4)c3n2)c1	?	-13.1%	-7.0%
CC(=O)N1CCC2(CC1)CN(Cc1ccccc1)C2	-5.4%	-1.6%	1.5%
Cc1nc2cncnc2n(C2CC2)c1=O	5.3%	-13.5%	3.8%
O=C1CCCC2C3CC(CN12)C1CCCCN1C3 (configuration not stated)	2.1%	-1.4%	1.3%
COc1ccccc1CNc1cc(-c2cccc(NS(C)(=O)=O)c2)ncn1	-0.4%	?	-13.0%
CC(=O)N1CCC2(CC1)CN(C(c1ccccc1)c1ccccc1)C2	-6.1%	-1.7%	-0.8%
CCOC(=O)OC(C)OC(=O)C1N2C(=O)C(NC(=O)C(N)c3ccccc3)C2SC1(C)C (configuration not stated)	4.0%	34.3%[activator]	0.7%
O=C(c1ccncc1)N1CCC[C@@]2(CCN(c3ccccc3)C2)C1	19.0%	-16.1%	5.2%
O=C(O)C1CN(CP(=O)(O)O)CCN1 (configuration not stated)	-1.0%	2.4%	2.1%
COc1ccc(CNc2nc(-c3cccc(C#N)c3)nc3ccccc23)c(OC)c1	?	-13.3%	0.1%
CN(C)Cc1ccccc1-c1nc(NC2CC2)c2ccccc2n1	-1.8%	12.0%	-0.7%
COc1ccccc1CNc1cc(-c2ccccc2C(F)(F)F)ncn1	-4.2%	-25.3%	-1.1%
CC(C)NC(=O)N1CCCC2(CCN(S(=O)(=O)c3ccccc3)CC2)C1	2.7%	-6.8%	5.6%
CS(=O)(=O)Nc1cccc(-c2nc(-n3ccnc3)c3ccccc3n2)c1	14.4%	-4.1%	-1.3%
CN(C)C(=O)c1ccc(-c2ccc3ncnc(N4CCOCC4)c3c2)cc1	-17.2%	-29.6%	-0.7%
CN(C)Cc1ccccc1-c1cc(N(C)Cc2ccco2)ncn1	-10.3%	-12.7%	-1.2%
C=CCN1C[C@H](C)N([C@H](c2ccc(C(=O)N(CC)CC)cc2)c2cccc(OC)c2)C[C@H]1C	-4.1%	?	1.6%
COc1ccc(-c2nc3cnc(Nc4ccccc4)nc3n(CCC#N)c2=O)cc1	-2.3%	-12.5%	0.9%
CC(=O)N1CCC[C@@]2(CCN(Cc3ccc(C#N)cc3)C2)C1	-1.6%	-13.6%	4.2%
COc1ccccc1-c1cncnc1NCc1cccs1	5.6%	2.4%	4.9%
CC(=O)NCCNc1nc(-c2ccccc2C(F)(F)F)nc2ccccc12	-6.4%	0.9%	0.4%
Cn1c(=O)c(-c2cccs2)nc2cnc(Oc3ccccc3)nc21	15.1%	31.4%[activator]	5.1%
COCCn1c(=O)c(C)nc2cnc(Oc3ccc(OC)cc3)nc21	5.3%	-18.8%	-4.8%
CC1OC(O[C@@H]2C(O)CC(O[C@@H]3C(O)C[C@@H](OC4CC[C@]5(C)[C@H](CC[C@H]6[C@@H]5CC[C@]5(C)C(C7=CC(=O)OC7)C(O)C[C@@]65O)C4)OC3C)OC2C)CC(O)C1O (some centres not stated)	-3.4%	-28.8%	7.3%
CC(=O)OC1CC[C@]2(C)C(CC(OC(C)=O)[C@@]3(C)C4=CC(=O)OC(c5ccoc5)[C@]4(C)CCC23)C1(C)C (some centres not stated)	?	?	-5.9%&0.4%&-1.5%

From PubChem BioAssay
